Vaccinia inh – blocks a specific stage of Vaccinia orthopoxvirus infection, primary screen, cell-based, single point; Vaccinia-infected cells, mCherry/Venus stage reporter fluorescence; active compounds read low; some inactives read as strong as hits; activity change (mCherry), % (concentration not given with the values); actives 0.01% (n = 89,000);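 active = mCherry past -33% and 40 or more points under the early reporter, replicates agreeing; inconclusive = past -33% without that gap or agreement; tested in A549 cells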;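 also: scaled between vehicle wells and reference inhibitor wells; 23 nL library stock went into each well; one replicate is shown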
Vaccinia inh Venus – also measured in Vaccinia inh; calls as there; activity change (Venus), %; measured here: Venus reporter, other viral stage;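 negative = less Venus signal; first of two replicates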
Active calls of the source: *; ? = inconclusive; nt = not tested or not shown.

SMILES	Vaccinia inh	Vaccinia inh Venus
CO[C@@H]1CN(C)C(=O)c2cc(NC(C)=O)ccc2OC[C@@H](C)N(Cc2ccc(F)cc2)C[C@H]1C	-8	-4
CC(C)NC(=O)Nc1ccc2c(c1)C(=O)N([C@H](C)CO)C[C@@H](C)[C@@H](CN(C)S(=O)(=O)c1ccc(Cl)cc1)O2	4	4
C[C@H](CO)N1C[C@H](C)[C@@H](CN(C)Cc2ccc(F)cc2)Oc2ncc(-c3cccc(C#N)c3)cc2C1=O	-2	-7
O=C(Nc1ccccc1F)N1CCCCN2[C@H](C1)[C@H](c1ccc(C3=CCCCC3)cc1)[C@@H]2CO	-15	-20
COc1ccccc1NC(=O)N1CCCCN2[C@@H](CO)[C@H](c3ccc(-c4cccc(F)c4)cc3)[C@@H]2C1	?	nt
CN(C)CC#Cc1ccc([C@H]2[C@@H](CO)N3CCCCN(C(=O)c4ccc5c(c4)OCO5)C[C@H]23)cc1	5	9
COc1ccc2c3c([nH]c2c1)[C@@H](CO)N(C(=O)C1CCCCC1)CC31CCN(C(=O)c2ccncc2)CC1	0	0
C[C@@H]1CCCCO[C@@H](CN(C)C(=O)NC2CCCCC2)[C@@H](C)CN([C@H](C)CO)C(=O)c2cc(NC(=O)Nc3ccc(C(F)(F)F)cc3)ccc2O1	10	5
O=C1CN(Cc2ccc(F)cc2)C[C@H]2[C@@H](c3ccc(-c4ccccc4)cc3)[C@@H](CO)N12	0	-2
Cc1noc(C)c1S(=O)(=O)N(C)C[C@@H]1Oc2ccc(NS(=O)(=O)c3ccc(Cl)cc3)cc2CC(=O)N([C@@H](C)CO)C[C@H]1C	-4	-7
NC(=O)[C@@H]1[C@H]2C(=O)O[C@H](c3ccccc3)[C@H](c3ccccc3)N2[C@H](c2ccc(OCCO)cc2)[C@@]12C(=O)Nc1ccc(C#CC3=CCCCC3)cc12	-21	-14
O=C(C[C@@H]1C=C[C@H](NC(=O)CC2CC2)[C@@H](CO)O1)NCc1ccccc1	9	7
C[C@@H]1CN([C@@H](C)CO)C(=O)Cc2cc(NC(=O)Cc3ccccc3)ccc2O[C@@H]1CN(C)CC1CC1	-2	-9
Cc1ccc(NC(=O)Nc2ccc3c(c2)C(=O)N(C)[C@@H]2CC[C@@H](CC(=O)O)O[C@@H]2CO3)cc1	5	5
COCC(=O)Nc1ccc2c(c1)[C@H]1C[C@H](CC(=O)N3CCc4ccccc4C3)O[C@H](CO)[C@H]1O2	4	13
COc1ccc(S(=O)(=O)Nc2ccc3c(c2)C(=O)N([C@H](C)CO)C[C@H](C)[C@H](CN(C)Cc2ccncc2)OCCCC[C@H](C)O3)cc1	-7	-12
COc1ccc(CN(C)C[C@H]2Oc3ccc(NC(=O)Nc4cccc5ccccc45)cc3CC(=O)N([C@@H](C)CO)C[C@@H]2C)cc1	-30	-11
N#C[C@H]1[C@@H](c2ccccc2C2=CCCC2)[C@@H](CO)N1C(=O)C1CCC1	13	7
O=C(C1CCCCC1)N1CC(=O)N2[C@H](CO)[C@@H](c3ccc(-c4ccccc4F)cc3)[C@@H]2C1	?	nt
Cc1ccc(S(=O)(=O)N[C@H]2CC[C@H](CCNC(=O)C3CCCCC3)O[C@@H]2CO)cc1	-17	-15
CC=Cc1ccc2n(c1=O)C[C@@H]1[C@@H](CO)[C@H](C(=O)Nc3ccc(-c4ccccc4)cc3)[C@H]2N1C (mixture of isomers)	-26	-32
Cc1ccc(S(=O)(=O)Nc2ccc3c(c2)CC(=O)N([C@@H](C)CO)C[C@@H](C)[C@H](CN(C)C)O3)cc1	1	8
COCC(=O)N(C)C[C@H]1Oc2cc(-c3ccc(F)cc3)ccc2S(=O)(=O)N([C@@H](C)CO)C[C@@H]1C	-1	-2
COc1ccccc1-c1cnc2c(c1)C(=O)N([C@H](C)CO)C[C@@H](C)[C@@H](CN(C)Cc1ccc(C(=O)O)cc1)O2	7	-9
C[C@@H]1CN([C@@H](C)CO)C(=O)Cc2cc(NC(=O)C3CC3)ccc2O[C@@H]1CN(C)S(=O)(=O)c1ccc(F)cc1	8	5
C[C@H]1CN([C@@H](C)CO)S(=O)(=O)c2ccc(Br)cc2O[C@@H]1CN(C)S(C)(=O)=O	9	1
CC(C)NC(=O)N(C)C[C@H]1Oc2ccc(NC(=O)CCN3CCOCC3)cc2CC(=O)N([C@@H](C)CO)C[C@@H]1C	21	13
C[C@H]1CN([C@@H](C)CO)S(=O)(=O)c2ccc(-c3ccncc3)cc2O[C@@H]1CN(C)C(=O)Nc1ccc(C(F)(F)F)cc1	?	nt
CC(=O)N1CC2(C1)[C@H](c1ccccc1)[C@@H](CO)N2S(=O)(=O)c1ccccc1	-1	2
C[C@H](CO)N1C[C@H](C)[C@@H](CN(C)S(=O)(=O)c2ccccc2)Oc2c(NS(C)(=O)=O)cccc2C1=O	19	9

A draw from above in order of molar mass, ascending:
SMILES	Vaccinia inh	Vaccinia inh Venus
Cc1ccc(NC(=O)Nc2ccc3c(c2)C(=O)N(C)[C@@H]2CC[C@@H](CC(=O)O)O[C@@H]2CO3)cc1	5	5
CN(C)CC#Cc1ccc([C@H]2[C@@H](CO)N3CCCCN(C(=O)c4ccc5c(c4)OCO5)C[C@H]23)cc1	5	9
COc1ccccc1-c1cnc2c(c1)C(=O)N([C@H](C)CO)C[C@@H](C)[C@@H](CN(C)Cc1ccc(C(=O)O)cc1)O2	7	-9
Cc1noc(C)c1S(=O)(=O)N(C)C[C@@H]1Oc2ccc(NS(=O)(=O)c3ccc(Cl)cc3)cc2CC(=O)N([C@@H](C)CO)C[C@H]1C	-4	-7
NC(=O)[C@@H]1[C@H]2C(=O)O[C@H](c3ccccc3)[C@H](c3ccccc3)N2[C@H](c2ccc(OCCO)cc2)[C@@]12C(=O)Nc1ccc(C#CC3=CCCCC3)cc12	-21	-14

Other compounds:
SMILES	Vaccinia inh	Vaccinia inh Venus
Cc1noc(C)c1S(=O)(=O)N(C)C[C@H]1Oc2ccc(NS(=O)(=O)c3cn(C)cn3)cc2CC(=O)N([C@@H](C)CO)C[C@H]1C	5	7
C[C@@H]1CN([C@@H](C)CO)C(=O)Cc2cc(NC(=O)Nc3ccc4c(c3)OCO4)ccc2O[C@@H]1CN(C)Cc1ccc(C(=O)O)cc1	19	16
CC(=O)N(C)C[C@@H]1Oc2cc(C#Cc3cccc(F)c3)ccc2S(=O)(=O)N([C@H](C)CO)C[C@H]1C	-29	-32
CO[C@H]1CN(C)C(=O)c2ccc(NC(=O)c3ccccc3F)cc2OC[C@@H](C)NC[C@@H]1C	-1	5
O=C(c1cccnc1)N1CC[C@H]2[C@H](CO)Nc3ccc(C#Cc4cccnc4)cc3[C@H]21	-6	-2
COCC#Cc1cnc2c(c1)C(=O)N([C@@H](C)CO)C[C@@H](C)[C@H](CN(C)Cc1ccc3c(c1)OCO3)O2	3	6
O=C(C[C@H]1CC[C@H](NC(=O)C2CCC2)[C@@H](CO)O1)NC1CCCCC1	-7	-4
Cc1noc(C)c1NC(=O)Nc1ccc2c(c1)CC(=O)N([C@@H](C)CO)C[C@@H](C)[C@@H](CN(C)C)O2	?	nt
Cc1ccc(S(=O)(=O)N(C)C[C@@H]2Oc3ccc(NC(=O)Cc4cn(C)c5ccccc45)cc3C(=O)N([C@@H](C)CO)C[C@H]2C)cc1	-5	6
COCC(=O)N1C[C@@H]2[C@H](c3ccccc31)[C@@H](CO)N2C(=O)C1CCCC1	24	20
CCC(=O)N1C[C@H](C)[C@@H](OC)CN(C)C(=O)c2ccc(NC(=O)C3CCOCC3)cc2OC[C@@H]1C	27	17
O=S(=O)(c1ccc(F)cc1)N1CCCCN2[C@H](CO)[C@H](c3ccc(-c4ccccc4)cc3)[C@@H]2C1	?	nt
CO[C@H]1CN(C)C(=O)c2ccc(NC(=O)Nc3c(C)noc3C)cc2OC[C@H](C)N(C)C[C@H]1C	1	2
COc1ccc(-c2ccc([C@H]3[C@H]4CN(C(=O)Cc5ccccc5)CCCCN4[C@H]3CO)cc2)cc1	?	nt
CO[C@@H]1CN(C)C(=O)c2ccc(NC(=O)c3cc(C)on3)cc2OC[C@@H](C)N(C(C)=O)C[C@H]1C	-8	-6
CCNC(=O)C[C@H]1CC[C@@H]2[C@H](COc3ccc(NC(=O)Cc4ccccc4)cc3C(=O)N2C)O1	19	18
C[C@@H]1CN([C@H](C)CO)C(=O)c2cc(NC(=O)c3ccncc3)ccc2O[C@H]1CN(C)Cc1ccc(C(=O)Nc2ccccc2N)cc1	19	15
COCC(=O)N1C[C@H](C)[C@@H](OC)CN(C)C(=O)c2cc(NC(=O)C3CCC3)ccc2OC[C@@H]1C	10	14
COCC(=O)N(C)C[C@@H]1[C@@H](c2ccc(-c3ccccc3)cc2)[C@H](CO)N1C(C)=O	-3	8
CCCN1[C@@H]2Cn3c(ccc(-c4ccncc4)c3=O)[C@H]1[C@@H](C(=O)N1CCCCC1)[C@@H]2CO	7	9
COc1ccccc1NC(=O)N[C@H]1C=C[C@@H](CC(=O)NCc2ccc(Cl)c(Cl)c2)O[C@@H]1CO	-29	-19
O=C(C[C@@H]1CC[C@H]2[C@@H](COC[C@@H](O)CN2Cc2ccc(Cl)cc2)O1)NCCc1ccccc1	-34	-21
CC(C)NC(=O)NCC[C@@H]1CC[C@H](NS(=O)(=O)c2ccc(Oc3ccccc3)cc2)[C@@H](CO)O1	-10	8
O=C(C1=C[C@@H](C2CCCCC2)C[C@@H](OCc2ccc(CO)cc2)O1)N1CCN(Cc2ccccc2)CC1	-25	-19
C[C@@H]1CN([C@@H](C)CO)C(=O)c2cc(NS(=O)(=O)c3ccccc3)ccc2O[C@H]1CN(C)Cc1ccccc1	7	5
COc1ccccc1NC(=O)N1CC[C@@H]2[C@H]1c1cc(C#Cc3ccc(F)cc3)ccc1N(C)[C@@H]2CO	25	14
C[C@@H]1CN([C@@H](C)CO)C(=O)c2cc(NS(=O)(=O)c3cn(C)cn3)ccc2O[C@@H](C)CCCCO[C@@H]1CN(C)C(=O)Nc1ccc(F)cc1	21	6
C[C@@H]1CCCCO[C@H](CN(C)C)[C@H](C)CN([C@H](C)CO)C(=O)c2cc(NC(=O)c3ccccc3)ccc2O1	2	-4
Cc1noc(C)c1NC(=O)N(C)C[C@H]1OCCCC[C@@H](C)Oc2ccc(NC(=O)Nc3ccc4c(c3)OCO4)cc2C(=O)N([C@H](C)CO)C[C@@H]1C	5	-1
O=C(NC[C@@H]1N[C@@H](CO)[C@H]1c1ccc(C2=CCCC2)cc1)c1ccccc1	-7	2
CC(C)C[C@@H]1NC(=O)[C@H]2C[C@@H](C(=O)NCc3ccc(F)cc3)[C@@H](c3cccc(OCCO)c3)N2C1=O	17	0
O=C(C[C@H]1C[C@@H]2c3cc(NC(=O)Nc4ccccc4F)ccc3O[C@@H]2[C@H](CO)O1)NCc1ccccn1	4	2
CCCC#Cc1ccc([C@H]2[C@@H](C#N)N(C(=O)C3CC3)[C@H]2CO)cc1	-14	-6
C[C@H](CO)N1C[C@H](C)[C@@H](CN(C)C(=O)Nc2ccc3c(c2)OCO3)Oc2c(NC(=O)C3CC3)cccc2C1=O	2	6
C[C@@H]1CN([C@@H](C)CO)C(=O)Cc2cc(NC(=O)Nc3cccc4ccccc34)ccc2O[C@@H]1CN(C)S(=O)(=O)c1ccc(F)cc1	25	26
O=C(NCC[C@@H]1CC[C@H](NS(=O)(=O)c2cccc(F)c2)[C@@H](CO)O1)C1CCCCC1	15	6
CC(C)NC(=O)Nc1ccc2c(c1)C(=O)N([C@@H](C)CO)C[C@H](C)[C@@H](CN(C)C(=O)Nc1ccc(F)cc1)O2	5	7
C[C@@H]1CN([C@@H](C)CO)S(=O)(=O)c2ccc(-c3cccc(C#N)c3)cc2O[C@@H]1CN(C)C(=O)c1ccncc1	24	14
CC(=O)N(C)C[C@@H]1Oc2cc(-c3ccccc3F)ccc2S(=O)(=O)N([C@@H](C)CO)C[C@H]1C	-4	0
O=C(c1ccncc1)N1CC[C@H]2[C@H](CO)Nc3ccc(-c4ccc(F)cc4)cc3[C@H]21	-6	-1
O=C(C[C@H]1C=C[C@H](NC(=O)C2CC2)[C@H](CO)O1)NCc1ccccc1Cl	3	8
C[C@@H]1CN([C@@H](C)CO)C(=O)c2cc(N(C)C)ccc2O[C@@H]1CN(C)S(=O)(=O)c1ccccc1	4	1
C[C@@H](NC(=O)C[C@@H]1C=C[C@H](NC(=O)CN2CCOCC2)[C@H](CO)O1)c1ccccc1	3	3
C[C@H](CO)N1C[C@H](C)[C@@H](CN(C)Cc2ccc(Oc3ccccc3)cc2)Oc2ccc(NS(=O)(=O)c3ccc(F)cc3)cc2CC1=O	?	nt
N#C[C@@H]1[C@H](c2ccc(C#CC3CCCC3)cc2)[C@@H](CO)N1C(=O)c1cccc(F)c1	?	nt
C[C@@H]1CN([C@H](C)CO)C(=O)CCCn2nncc2CO[C@H]1CN(C)C(=O)c1ccc(N2CCN(C)CC2)cc1	7	8

Quoted at random: 3 entries already listed, in no set order.
SMILES	Vaccinia inh	Vaccinia inh Venus
CCCC#Cc1ccc([C@H]2[C@@H](C#N)N(C(=O)C3CC3)[C@H]2CO)cc1	-14	-6
C[C@@H]1CN([C@@H](C)CO)S(=O)(=O)c2ccc(-c3cccc(C#N)c3)cc2O[C@@H]1CN(C)C(=O)c1ccncc1	24	14
O=C(C[C@H]1C[C@@H]2c3cc(NC(=O)Nc4ccccc4F)ccc3O[C@@H]2[C@H](CO)O1)NCc1ccccn1	4	2

Assay outcomes from PubChem BioAssay.

These rows are one share of the data. The share of hits here may be higher or lower than overall.
